Screens from PubChem BioAssay.
H5N1 CPE: MDCK cell protection from H5N1 avian flu; inhibition, % at 50 µM; AID 740, 2007; cytopathic effect, luminescence, 72 h; stronger effect = higher value; no value below 0 was filed and about half of the inactive calls have no number; reference of the scale not given here; actives 0.07% (n = 96,000); in the data active means inhibition above about 25%
* marks the source's active call; other numbers are inactive results; i = inactive. An excerpt; rates above refer to the full screens.

SMILES	H5N1 CPE
COc1cc2c(cc1OC)C(c1cccs1)CC(=O)N2 (stereo unspecified)	0.6
CCCc1cc(=O)[nH]c(SCC(=O)c2c(N)n(C)c(=O)n(C)c2=O)n1	0.5
Cc1nn(C)c(Oc2ccccc2)c1[N+](=O)[O-]	i
Cc1ncoc1C(=O)Nc1cccc(Cl)c1C	0.1
Cc1cccn2c(=O)c(/C=N/O)c(N3CCCC3)nc12	0.9
C=CCNC(=O)c1cccc(C(F)(F)F)c1	i
CN(C)CCCNCCCNC(=O)c1ccncc1	1.5
CCOC(=O)c1sc(N/N=C/c2cccc(C)c2)nc1C	0.4
CC(=O)Nc1nonc1-n1nnc(C(=O)NCc2ccccc2)c1C	0.1
Cc1ccc(-n2ccnc2SCC(=O)N(CC(C)C)C2CCS(=O)(=O)C2)c(C)c1 (stereo unspecified)	1.1
Cc1ccc(C)c(C(=O)Nc2c(C(N)=O)oc3ccccc23)c1	0.3
CC(C)CCC(CCN1CCOCC1)c1ccc2c(c1)OCO2 (stereo unspecified)	i
O=C(c1c[nH]c2ccc(S(=O)(=O)N3CCC4(CC3)OCCO4)cc2c1=O)N1CCOCC1	0.1
O=S(=O)(Nc1cccnc1)c1ccc(Cl)c(C(F)(F)F)c1	0.0
Cc1ccc(CNC(=O)CCCNS(=O)(=O)c2cccc3nonc23)cc1	1.4
Cn1c(=O)c(C(=S)NC(=O)C2CC2)c(N)n(Cc2ccccc2)c1=O	i
CC(=O)Nc1ccc(S(=O)(=O)NC(CC(=O)NC2CCCCC2C)C(C)C)cc1 (stereo unspecified)	i
Cn1c(=O)[nH]c(=O)c2c1nc(Br)n2CCSc1nnnn1-c1ccccc1	2.1
CCN(CC)CCN1C(=O)c2oc3ccccc3c(=O)c2C1c1cccc(Br)c1 (stereo unspecified)	i
Cc1ccccc1NC(=O)CC1SC(=NC2CCCCC2)NC1=O (stereo unspecified)	i
CC(C)OCCCNC(=O)NC12CC3CC(CC(C3)C1)C2	0.2
CC(C)NC(=O)CSCc1cccc(Br)c1	0.6
O=C(CN1C(=O)COc2ccccc21)NCCN1CCC(Cc2ccccc2)CC1	i
Cc1cc(C)cc(-n2nnc(C(=O)NCc3ccccc3Cl)c2N)c1	i
COc1nc(N)nc(NC23CC4CC(CC(C4)C2)C3)n1	i
(list continues)
SMILES	H5N1 CPE
COc1ccc(OC)c(-n2c(-c3cc(-c4ccc(F)cc4)n[nH]3)n[nH]c2=S)c1	2.6
Cc1nn(C(C)(C)C)c(OC(=O)c2cccs2)c1S(=O)(=O)c1ccccc1	i
COc1ccc(OC)c(-c2cc(C(=O)NCCN3CCOCC3)no2)c1	i
COC(=O)CSc1cnc2ccccc2n1	i
O=C1C2C3C=CC(C3)C2C(=O)N1CN(Cc1ccccc1)CN1C(=O)C2C3C=CC(C3)C2C1=O (stereo unspecified)	0.5
c1ccc(-c2nc(-n3nc4ccccc4n3)nc3ccccc23)cc1	6.9
CCOP(=O)(OCC)C(O)c1ccc(OC)c(OC)c1 (stereo unspecified)	0.8
CC(C)CC(=O)Nc1ccc(N2CCOCC2)cc1	i
CC1=CC=CN2CC(O)CN=C12 (stereo unspecified)	i
Cc1ccc(-c2nc(NC(=O)c3nn(C)cc3[N+](=O)[O-])sc2C)cc1	1.1
COc1ccc(-c2cc(C(=O)OCC(=O)N3CCCC3)c3ccccc3n2)cc1	0.1
CN(Cc1ccccc1)C(NC(=O)c1ccccc1)C(Cl)(Cl)Cl (stereo unspecified)	i
Cc1nnc(NC(=O)c2cccc(S(=O)(=O)N3CC(c4ccccc4)CC3=O)c2)s1 (stereo unspecified)	1.1
O=C1NCCCc2c1no[n+]2[O-]	i
C/C(NCc1cccnc1)=C(\C#N)C(=O)NCc1ccccc1	0.8
COc1ccc(OC)c(-n2c(=S)[nH]c3cc(C(=O)N4CCC(C(N)=O)CC4)ccc3c2=O)c1	i
CCc1ccccc1NC(=O)C(C)n1nc([N+](=O)[O-])c(Br)c1C (stereo unspecified)	i
CC(=O)c1ccc(N2CCCC2)c(F)c1	i
CC1CCN(c2nc(-c3ccccc3O)nc3ccccc23)CC1	1.2
O=C(NC1CCCCCC1)C1CCN(S(=O)(=O)N2CCC3(CC2)OCCO3)CC1	i
CC1(C)CC(=O)C2=C(C1)OC(N)=C(C#N)C2c1ccsc1 (stereo unspecified)	i
COc1ccccc1NC(=O)N1CCCC1C(=O)Nc1ccc2c(c1)OCO2 (stereo unspecified)	i
O=C(c1cc2ccccc2oc1=O)N(Cc1ccco1)Cc1cccs1	0.8
CC(C)Cc1nnc(NC(=O)c2ccc([N+](=O)[O-])cc2)s1	0.8
CC(C)CCNc1nc(N2CCCC2)c2c(c1C#N)CCN(C)C2	i
The list goes on.
SMILES	H5N1 CPE
CCCCCCCC(=O)NNC(=O)CCC(=O)O	i
CS(=O)(=O)N(CC(=O)N1CCCC1)c1ccc(Cl)c(Cl)c1	i
C=C(C)Cn1c(Sc2nnc(C)s2)nc2c1c(=O)[nH]c(=O)n2C	1.0
COc1ccc(S(=O)(=O)O/N=C2\CCSc3ccc(C)cc32)cc1	1.0
CCOC(=O)Cn1c(=O)oc2cc(S(=O)(=O)Nc3cccc(C)c3)ccc21	1.2
CC1(C)CC(=O)c2cc(C(=O)N3CCN(CCO)CC3)c(=O)n(-c3ccc(Cl)cc3)c2C1	i
O=C(NCCc1ccccc1F)[C@@H]1CSC2c3ccccc3C(=O)N21 (stereo partly specified)	i
O=C(Nc1cccc(O)c1)C1CCCN1C(=O)OCc1ccccc1 (stereo unspecified)	0.8
CN1c2ccsc2C(O)=C(C(=S)Nc2ccccc2)S1(=O)=O	64*
CCC(=O)N1CCN=C1SCc1ccccc1	1.3
C=CCn1c(SCc2ccc(C(=O)Nc3ccccc3)cc2)nnc1-c1ccccc1	i
CCn1c(=O)cc(SCC(=O)N2CCN(c3ccccn3)CC2)c2ccccc21	0.1
O=C(NCC1CCCO1)c1cccc(N2C(=O)C3C4C=CC(C4)C3C2=O)c1 (stereo unspecified)	2.5
Cc1ccc(/C=C/c2nnc(-c3cccc(C)c3)o2)cc1	0.0
CCN1CCN(Cc2cc(C(C)(C)C)c(O)c(C(C)(C)C)c2)CC1	i
O=C(Cn1cc(C(=O)C2CC2)c2ccccc21)NC1CCCC1	0.1
CCOC(=O)C(C)Sc1nc2ccccc2c(=O)n1CC1CCCCC1 (stereo unspecified)	1.0
CCCCOc1ccc(C(=O)Nc2cccc(C)n2)cc1	i
CCCN(CCC)S(=O)(=O)c1ccc(C(=O)Nc2nnc(CSC)o2)cc1	6.2
CCN(c1cccc(C)c1)S(=O)(=O)c1c(C)[nH]c(=O)[nH]c1=O	i
O=C(CCC(=O)NC1CC1)Nc1nnc(C2CCCCC2)s1	i
CC1(Cc2ccc3c(c2)OCO3)NC(=O)NC1=O (stereo unspecified)	1.1
CC(C)COc1ccc(/C=C2/Sc3ccccc3C2=O)cc1	i
Cc1noc(C)c1COc1ccc(C(=O)OCC(=O)Nc2ccc3ccccc3c2)cc1	i
CCOc1ccc(OCCSc2nc3ccccc3c(=O)[nH]2)cc1	0.2
(list continues)
SMILES	H5N1 CPE
Cc1ccc(-c2nn3c(C)nnc3c3ccccc23)cc1S(=O)(=O)NCCN1CCOCC1	4.2
COc1cccc(Nc2ncnc3c2cnn3-c2cccc(C)c2)c1	i
Clc1ccc(Oc2ncnc3oc(-c4ccccc4)cc23)cc1	i
CCCCCCCC(=O)OC(CN1CCCCC1)CN1CCCC1=O (stereo unspecified)	0.5
O=C(Nc1ccccc1N1CCOCC1)c1ccccc1NS(=O)(=O)c1ccc(F)c(F)c1	0.3
COc1ccc(S(=O)(=O)N2Cc3ccccc3CC2C(=O)Nc2ccc(O)cc2)cc1OC (stereo unspecified)	i
Cn1c(CNc2ccc(Cl)cc2)nc2ccccc21	i
Cn1c(=O)n(C)c2cc(NC(=O)c3cc4ccccc4o3)ccc21	i
Cc1cc(C)cc(OC(=O)N2CCOCC2)c1	0.6
CCC(=O)c1ccccc1OCCSc1nc(C)cc(=O)[nH]1	1.1
O=C(Nc1ccc(N2CCN(C(=O)c3ccc(Cl)cc3)CC2)cc1)c1ccc2c(c1)OCCO2	0.7
Cc1ccc2cc(CNC(C)(C)C)c(=O)[nH]c2c1	i
CCOc1ccccc1NC(=O)C(Sc1ccccc1)c1ccccc1 (stereo unspecified)	0.5
N#C/C(C(=O)Oc1ccccc1)=C1/Nc2ccccc2-c2ccccc21	i
O=C(CCN1C(=O)C2C3C=CC(C3)C2C1=O)Nc1nccs1 (stereo unspecified)	i
CCN1C(=O)Cc2cc(S(=O)(=O)N3CCOCC3)ccc21	1.0
CCC(=O)N1CCN(c2ccc(NC(=O)c3cccs3)cc2)CC1	i
CCC1Oc2ccc(C)cc2N(CC(=O)NCCN2CCCCCC2)C1=O (stereo unspecified)	i
COc1ccc(N2CCN(c3nc4ccccc4n3CC(=O)c3ccccc3)CC2)cc1	i
COc1ccc(N2CCC(CNC(=O)Nc3ccccc3)C2)cc1 (stereo unspecified)	i
COc1ccc(CCN2C(=O)C(Oc3ccccc3C)C2c2ccc3c(c2)OCO3)cc1OC (stereo unspecified)	0.1
O=C(CNC(=O)c1ccco1)NCC(=O)OCc1ccccc1Br	i
CCOC(=O)C1CCN(C(=O)C2CCCCC2)CC1	i
CN1CCN(c2cc(=O)n(C3CCCCC3)c(=O)[nH]2)CC1	i
CC(=O)c1cccc(NC(=O)Nc2ccc3c(c2)N(C)C(=O)CS3)c1	i

A few values from above:
Under H5N1 CPE, `COc1ccc(CCN2C(=O)C(Oc3ccccc3C)C2c2ccc3c(c2)OCO3)cc1OC` (stereo unspecified) reads 0.1
Under H5N1 CPE, `CCC(=O)c1ccccc1OCCSc1nc(C)cc(=O)[nH]1` reads 1.1

Continuation.
SMILES	H5N1 CPE
CCN1C(=O)CC(C(=O)Nc2ccc(F)cc2)SC1=Nc1cccc(OC)c1 (stereo unspecified)	i
COc1cccc(C(=O)/C=C/Nc2ccc(S(=O)(=O)Nc3cccc(C(C)=O)c3)cc2)c1	i
CCOC(=O)C1CCCN(Cc2nc(N)nc(Nc3ccc(Cl)cc3)n2)C1 (stereo unspecified)	i
Cc1cc2nc(-c3ccc(NC(=O)C(C)C)cc3)oc2cc1C	i
CCOc1c2ccc(C(=O)NCC34CC5CC(CC(C5)C3)C4)cc2nn1CC	i
CSc1ccc(S(=O)(=O)NCc2ccc(C)cc2)cc1	0.3
O=C1c2cccc3cccc(c23)C(=O)N1OS(=O)(=O)c1ccccc1	i
COC(=O)c1cc(NC(=O)/C=C/c2ccc3c(c2)OCO3)cc(C(=O)OC)c1	0.3
CCOC(=O)c1cc2c(s1)-c1c(C)cccc1OC2	2.4
Cc1cccc2cc(C#N)c(SCC(=O)N3CCC(C)CC3)nc12	0.2
C1=CN2CCC1C(c1ccccc1)C2 (stereo unspecified)	0.1
COC(=O)c1nc(-n2nc(C)cc2C)ccc1Cl	0.1
CCOC(=O)c1ccc(Nc2c(CC)c(C)nc3ncnn23)cc1	i
O=C(NC(=S)Nc1cc(Cl)ccc1N1CCOCC1)c1ccc(-c2cccc(Cl)c2)o1	i
Cc1cc(NC(=O)CSCc2nc(-c3cccc(F)c3)oc2C)no1	0.3
CCN(CC)C(=O)CCC(=O)Nc1ccc(C(=O)OC)cc1	0.3
CCC(=O)Nc1ccc2c(c1)ncn2-c1ccccc1	0.3
NC(=O)CSc1nc2sc(-c3ccccc3)cc2c(=O)n1N	i
CCCCCCNC(=O)c1c(O)c2cccc3c2n(c1=O)CCC3	i
O=C(CSc1nnc(Cc2cc(=O)[nH]c(=O)[nH]2)n1-c1ccc(F)cc1)N1CCCCC1	1.5
CCCOC(=O)C1[C@H]2C(=O)N(CCCOC)C[C@]23C=C[C@H]1O3 (stereo partly specified)	i
COc1ccc(CCN2CC(C#N)=C3c4cc(OC)c(OC)cc4CCN3C2)cc1OC	0.1
CCn1nc(C)c(NC(=O)/C=C/c2cnn(C)c2)c1C	i
Cc1nc2ccccc2c(=O)n1/N=C/c1cn(-c2ccccc2)nc1-c1cccs1	0.5
O=C(NCc1ccco1)C1CN(S(=O)(=O)c2ccccc2)CCN1S(=O)(=O)c1ccccc1 (stereo unspecified)	1.2

Arranged by number of heavy atoms (ascending): 3 of the compounds above.
SMILES	H5N1 CPE
CCn1nc(C)c(NC(=O)/C=C/c2cnn(C)c2)c1C	i
CCOc1c2ccc(C(=O)NCC34CC5CC(CC(C5)C3)C4)cc2nn1CC	i
O=C(NC(=S)Nc1cc(Cl)ccc1N1CCOCC1)c1ccc(-c2cccc(Cl)c2)o1	i

Retrieved by compound from the entries so far, 6 records:
SMILES	H5N1 CPE
CCN1CCN(Cc2cc(C(C)(C)C)c(O)c(C(C)(C)C)c2)CC1	i
Cc1cccc2cc(C#N)c(SCC(=O)N3CCC(C)CC3)nc12	0.2
COC(=O)c1cc(NC(=O)/C=C/c2ccc3c(c2)OCO3)cc(C(=O)OC)c1	0.3
O=C(CCN1C(=O)C2C3C=CC(C3)C2C1=O)Nc1nccs1 (stereo unspecified)	i
Cc1ccc(-n2ccnc2SCC(=O)N(CC(C)C)C2CCS(=O)(=O)C2)c(C)c1 (stereo unspecified)	1.1
O=C(NC(=S)Nc1cc(Cl)ccc1N1CCOCC1)c1ccc(-c2cccc(Cl)c2)o1	i

Remaining list, next part.
SMILES	H5N1 CPE
Cc1nn(C)cc1C(C(=O)NC1CCCCC1)N(C(=O)Cn1nnc2ccccc21)c1ccc(F)cc1 (stereo unspecified)	2.9
C=C(C)CN(CC)c1nc(N)c2c(N)nc3c(c2c1C#N)CC(=O)N3C12CC3CC(CC(C3)C1)C2	i
CC(C)Oc1ccccc1-c1nc(SCC(=O)O)n[nH]1	0.2
CCN(CC)c1ccc(N=Cc2c(O)n(Cc3ccccc3)c(=O)[nH]c2=O)cc1	i
CC(C)C(=O)Nc1nnc(-c2ccccc2)o1	0.6
Cc1ccc2nc(C3CCCN(C(=S)Nc4ccccc4C)C3)[nH]c2c1 (stereo unspecified)	i
Cc1occc1-c1nnc(SCC(=O)NCc2cccs2)n1-c1ccc(F)cc1	6.9
CSC(=NC#N)N1CCN(c2ccc(Cl)cc2)CC1	i
c1ccc(-n2ncc3c(N4CCN(c5ccccn5)CC4)nc(N4CCCCCC4)nc32)cc1	i
CCSc1ccccc1C(=O)NCc1ccc(OC)cc1	0.2
O=c1[nH]ncc2c3ccccc3n(Cc3ccc(F)cc3)c12	0.3
